# Calb FLC: affects C. albicans growth with fluconazole. growth inhibition, % (test concentration not listed). C. albicans CaCi-2 (fluconazole-resistant clinical isolate) + fluconazole, Alamar Blue growth, 48 h. 0.57% of 300,000 active;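 active means most replicates above 75%; inconclusive means exactly half above 75%; inactive means most below 75%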;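 further: all wells also contain fluconazole at 8 µg/ml as a sub-toxic cotreatment; 0% = median of DMSO wells and 100% = median of geldanamycin control wells; wells of about 8 µL received 7.5 nL stock; the first replicate is given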
# T cruzi inh: T. cruzi replication inhibition; T. cruzi beta-gal in NIH3T3, luminescence, 90 h; 1.4% of 300,000 active; inhibition, % (no concentration beside the values);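 active means mean inhibition across valid replicates above about 55%, limit read from the data; inconclusive means mean below that limit but half or more replicates reach it; inactive means mean below it, under half of replicates reach it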;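 further: signal also drops with host cell toxicity which is not excluded here; 0% = plate median of DMSO wells and 100% = zero luminescence signal; higher percent means less beta-gal luminescence so fewer parasites; stock transfer was 50 nL into about 50 µL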
# LANA-H2A inh: blocks KSHV LANA binding to histone H2A/H2B; inhibition, % (concentration not given with the values); AID 2629; cell-free LANA-H2A/H2B peptide, fluorescence polarization; 0.6% of 320,000 active; in the data active means inhibition mostly above about 10%, no sharp cut-off; inactive means mostly below about 6.7%;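 further: stock transfer was 7.5 nL into about 10 µL; 0% = median of vehicle wells and 100% = median of positive control wells; one replicate is shown; the record names a cut of 25% in any replicate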
# Ecoli rRNA inh: inhibits bacterial ribosomal RNA function over humanized ribosomes. GFP signal change (wild-type ribosome), % (no concentration beside the values). E. coli WT GFP vs humanized-ribosome RFP mutants, fluorescence, 24 h; active compounds read low; DMSO median 0, no signal -100. 1.6% of 350,000 active. AID 720706;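 active means significant combined selectivity score with lowered wild-type GFP, culture density cut under 30%, mutant RFP and density less affected; inactive means any of these conditions unmet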; further: one replicate is shown; some compounds called inactive have numbers as strong as hits
# Beta2AR agonist: human beta-2 adrenergic receptor agonism by FAP | P07550 | Am2.2-beta2AR cells, FAP receptor internalization, flow cytometry; reference of the scale not given here | response, % (concentration not given with the values) | 0.43% of 340,000 active;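 active means response above a set limit, near 3 SD of response in nonfluorescent compounds, cut at about 42% in these data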;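 further: stock transfer was 100 nL into about 11 µL; a reference agonist was the positive control; negative values mostly stem from fluorescent compounds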
# Target sequence (P07550 whole entry, looked up): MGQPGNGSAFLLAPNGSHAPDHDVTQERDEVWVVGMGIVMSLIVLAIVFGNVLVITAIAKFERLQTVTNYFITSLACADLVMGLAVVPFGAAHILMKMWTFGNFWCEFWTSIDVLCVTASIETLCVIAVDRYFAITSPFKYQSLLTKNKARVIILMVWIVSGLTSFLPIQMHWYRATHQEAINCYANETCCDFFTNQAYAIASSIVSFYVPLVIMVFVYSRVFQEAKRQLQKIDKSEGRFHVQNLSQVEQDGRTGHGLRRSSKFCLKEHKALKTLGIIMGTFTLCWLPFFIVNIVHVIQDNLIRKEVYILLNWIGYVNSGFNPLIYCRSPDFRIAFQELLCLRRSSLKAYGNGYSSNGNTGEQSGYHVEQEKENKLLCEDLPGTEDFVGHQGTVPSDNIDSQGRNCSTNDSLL
# Beta cell apopt: blocks beta cell apoptosis; AID 435005; INS-1E cytokine-induced death, ATP luminescence, 48 h; percent of positive-control rescue, neutral wells zero; 0.8% of 300,000 active; protection from apoptosis, % (test concentration not listed);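 active means all replicates at 75% or more, or half of them and the mean; inconclusive means half reach 75% but not the mean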;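 further: 0% = cytokine-treated negative control wells and 100% = positive control rescue; higher means more ATP so stronger rescue from cytokine killing; wells of about 40 µL received 100 nL stock; the first replicate is given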
# A1 inh: inhibitors of the anti-apoptotic protein A1, read as caspase activation; MEF A1-2A-BIM cells, Caspase-Glo 3/7 luminescence, 3 h; percent of clofoctol response, vehicle zero; caspase activation, % (test concentration not listed); 0.066% of 330,000 active; AID 2462;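 active means over half of replicate activation scores above 10%, or exactly half above 10 with the replicate mean above 10; inconclusive means replicate mean below 10 yet half the replicates above 10; inactive means over half of replicates below 10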;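 further: wells of about 30 µL received 50 nL stock; many hits fall short of the cut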
# ALR H2O2 inh: human ALR oxidase inhibition via reduced H2O2. P55789. 3.8% of 290,000 active. AID 485317. inhibition, % (concentration not given with the values). purified ALR, DTT oxidation, H2O2 HRP-luminol luminescence;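 active means mean and each replicate at 75% or more; inconclusive means only one of the two met; inactive means neither met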;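 further: stock transfer was 7.5 nL into about 7.5 µL; 0% = neutral wells and 100% = wells with inactivated enzyme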
# Target sequence (P55789 whole entry, looked up): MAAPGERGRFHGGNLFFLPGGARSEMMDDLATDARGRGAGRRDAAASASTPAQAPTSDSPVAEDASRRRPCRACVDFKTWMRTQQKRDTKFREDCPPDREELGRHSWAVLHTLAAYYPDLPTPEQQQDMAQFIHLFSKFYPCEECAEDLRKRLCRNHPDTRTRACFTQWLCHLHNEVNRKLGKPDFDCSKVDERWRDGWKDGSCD
# Ecoli rRNA inh OD600: recorded beside Ecoli rRNA inh, whose call it bears; OD600 change, %; measured here: OD600 growth;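 optical density of the mix in the first replicate; 0 = DMSO median and -100 = no signal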
# Ecoli rRNA inh RFP: also measured in Ecoli rRNA inh; calls as there; RFP signal change, %; measured here: RFP humanized mutant strains;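 first replicate; 0 = DMSO median and -100 = no signal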
# Numbers without * were called inactive; ? = inconclusive; · = not tested or not shown; & = joins results of further samples. An excerpt. The share of hits here may be higher or lower than overall.
# Fields – Calb FLC, T cruzi inh, LANA-H2A inh, Ecoli rRNA inh, Ecoli rRNA inh OD600, Ecoli rRNA inh RFP, Beta2AR agonist, Beta cell apopt, A1 inh, ALR H2O2 inh
O=[N+]([O-])c1c(NCCO)cc(Sc2nc3ccccc3s2)c2nonc12
 : 1, 31, -2.3, ·, ·, ·, -278, 23, 2.0, 32
CNC(=O)Nc1cc(C)nn1C
 : -8, -9, 0.7, 4, 7, -2.9, -4, 3, 0.2, -8
Cc1ccc(/C(N)=N/OC(=O)/C=C/c2ccccc2)cc1
 : -3, 0, -4.1, ·, ·, ·, -4, 1, -2.8, 5
Cc1ccccc1CSCCC(=O)NCCc1ccccc1
 : -13, 8, 1.5, -36, -48, -14, -1, 1, -0.5, -2
Cn1c(=O)[nH]c(=O)c2c1nc(SCC(=O)O)n2CCOc1ccccc1
 : 0, -13, 1.5, 9, 18, -0.1, -10, 1, 1.9, -18
O=C(COc1ccc(-n2cnnn2)cc1)Nc1ccc(F)c(F)c1
 : ·, ·, 6.6, 9, 9, 1.1, -6, 1, -2.3, 0
CCCCNC(=O)C1=C(N)C(C(=O)Nc2ccc(C)c(S(=O)(=O)N3CCCCC3)c2)SC1=Nc1ccc(C)cc1C (stereo not drawn)
 : -13, 6, 3.7, ·, ·, ·, 5, 0, -0.4, -1
CCn1c(=O)cc(OCC(=O)NCCCN2CCN(c3cccc(Cl)c3)CC2)c2ccccc21
 : 12, 34, -1.3, ·, ·, ·, 0, 0, 0.5, 30
CC1CCCC(C)N1C(=O)CSc1nc(N)c(-c2ccccc2)c(=O)[nH]1 (stereo not drawn)
 : -2, -12, -1.4, 2, -3, -6.9, -3, 3, 0.4, -3
Cc1ccc(O)c(N=CC2=C(O)c3ccccc3C2=O)c1
 : 27, -8, 5.2, ·, ·, ·, 4, 21, -2.8, 7
CCc1ccc(NC(=O)CSc2nc3ccccc3nc2N2CCCCC2)cc1
 : -19, 27, 1.0, 2, 13, -6.8, ·, 17, -0.1, 0
O=C(Nc1ccc(C(=O)O)cc1)/C(=C\c1cccc([N+](=O)[O-])c1)NC(=O)c1ccc(Br)o1
 : 5, 0, -4.0, 20, 16, 0.8, 11, -5, -0.2, -4
CCOc1ccc(N2C(=O)CC(N3CCC(O)(c4ccc(Br)cc4)CC3)C2=O)cc1 (stereo not drawn)
 : -23, -10, 5.9, ·, ·, ·, 2, 3, 0.3, 3
Cc1cccc(NC(=O)c2cccc3c2C(=O)c2ccccc2-3)c1
 : 15, -11, 5.4, ·, ·, ·, 3, 10, -0.7, -4
CC(C(=O)Nc1nnc(C2CC2)s1)N1C(=O)C2CC=CCC2C1=O (stereo not drawn)
 : ·, ·, 13*, 3, 5, 0.3, -3, 0, -0.2, 2
Cc1c(C(=O)O)sc2c1c(=O)n(Cc1ccccc1)c(=O)n2C
 : 8, 3, 0.4, -13, -10, 1.1, -11, -3, 0.1, ·
COc1ccc(C2c3c(ncn(CCCO)c3=N)Oc3ccc4ccccc4c32)cc1 (stereo not drawn)
 : 3, 9, -2.4, -47*, -33*, -2.9*, 23, 5, 0.0, -11
COc1ccc(S(=O)(=O)NCC(c2cccnc2)N2CCN(c3ccccc3)CC2)cc1C (stereo not drawn)
 : -1, 63*, 1.3, -6, -7, 4.4, 19, -3, -0.1, 30
COc1ccc(CCN2C(=O)C3CC(C)=C(C)CC3C2=O)cc1OC (stereo not drawn)
 : -4, 1, 2.2, ·, ·, ·, 0, -4, 1.1, 0
CCC(=O)Nc1cnc(NC(=O)c2cccc(F)c2)cc1C
 : 0, -1, 0.5, ·, ·, ·, -1, 6, -14, -5
Cc1cc(-c2n[nH]c(=S)n2-c2ccc(F)cc2)nn1C
 : 4, -3, -0.1, 3, 7, 1.2, 8, -3, -1.3, 48
CCOC(=O)c1c[nH]n2c(=O)cc(C)nc12
 : -3, -1, 1.0, 4, -5, 1.0, 1, 1, -1.8, 8
C#CCn1c(=NC(=O)c2cccs2)sc2cccc(OCC)c21
 : -3, 44, 1.9, -1, 15, -3.5, 5, 4, 0.9, -7
O=C(CCc1c[nH]c2ccccc12)NCCc1ccccc1
 : 2, 3, 1.2, -3, -18, 5.4, 0, 0, -0.2, 0
O=C(NC1(C(F)(F)F)N=C2SCCN2C1=O)C1CCCCC1 (stereo not drawn)
 : -17, 2, 3.6, ·, ·, ·, -8, -3, 0.0, 6
CCOc1ccc(NC2c3ccccc3C(=O)N2c2ccc(Cl)cn2)cc1 (stereo not drawn)
 : -3, -10, 1.6, -2, -1, -0.4, 7, -5, -1.7, 2
Cc1ccccc1C(=O)N1CCN=C1SCc1ccc([N+](=O)[O-])cc1
 : -3, 20, ·, -7, 5, 2.6, -3, -3, 0.0, ·
O=C(Nc1ccc(F)cc1)Nc1ccc2c(c1)CCC2
 : 3, 9, -0.2, 4, 10, 2.2, -4, -1, -5.5, 3
COc1cccc(C(=O)NOCc2ccc(C)cc2)c1OC
 : ·, ·, ·, -1, 6, 4.3, -2, 2, 0.1, -5
O=C(O)C1CCCN(S(=O)(=O)c2cccs2)C1 (stereo not drawn)
 : 1, -8, -1.7, ·, ·, ·, 4, ·, -0.3, -5

# Fetched one by one from the entries so far:
# Fields – Calb FLC, T cruzi inh, LANA-H2A inh, Ecoli rRNA inh, Ecoli rRNA inh OD600, Ecoli rRNA inh RFP, Beta2AR agonist, Beta cell apopt, A1 inh, ALR H2O2 inh
O=C(NC1(C(F)(F)F)N=C2SCCN2C1=O)C1CCCCC1 (stereo not drawn)
 : -17, 2, 3.6, ·, ·, ·, -8, -3, 0.0, 6
CCOc1ccc(N2C(=O)CC(N3CCC(O)(c4ccc(Br)cc4)CC3)C2=O)cc1 (stereo not drawn)
 : -23, -10, 5.9, ·, ·, ·, 2, 3, 0.3, 3
O=[N+]([O-])c1c(NCCO)cc(Sc2nc3ccccc3s2)c2nonc12
 : 1, 31, -2.3, ·, ·, ·, -278, 23, 2.0, 32
CCC(=O)Nc1cnc(NC(=O)c2cccc(F)c2)cc1C
 : 0, -1, 0.5, ·, ·, ·, -1, 6, -14, -5
CCc1ccc(NC(=O)CSc2nc3ccccc3nc2N2CCCCC2)cc1
 : -19, 27, 1.0, 2, 13, -6.8, ·, 17, -0.1, 0
Cc1ccc(/C(N)=N/OC(=O)/C=C/c2ccccc2)cc1
 : -3, 0, -4.1, ·, ·, ·, -4, 1, -2.8, 5

# Remaining list, next part
# Fields – Calb FLC, T cruzi inh, LANA-H2A inh, Ecoli rRNA inh, Ecoli rRNA inh OD600, Ecoli rRNA inh RFP, Beta2AR agonist, Beta cell apopt, A1 inh, ALR H2O2 inh
COc1ccc(C2CC(=O)c3cnc(N4CCc5ccccc54)nc3C2)cc1OC (stereo not drawn)
 : 0, 7, 1.2, ·, ·, ·, ·, -2, -1.0, -19
COc1ccc(C(=O)COC(=O)c2ccco2)cc1
 : 11, ·, -2.0, -3, 0, 2.3, 6, -14, -9.6, -2
O=C(NC(Cc1c[nH]c2ccccc12)C(=O)O)c1ccc2c(c1)OCO2 (stereo not drawn)
 : 1, -4, 1.0, -6, 21, 9.9, -4, -3, 1.5, ·
C(=C\c1nc(N2CCCCCC2)c2ccccc2n1)/c1ccccc1
 : -2, 27, -2.9, ·, ·, ·, -5, 109*, -1.9, 4
Cc1nnc2n(c1=O)N=C(c1ccc(Cl)cc1)CS2
 : 27, 0, -3.8, -3, -6, 3.3, -15, -13, 0.2, 99*
COc1ccc(CCC(=O)N(C)CC(=O)Nc2cc(C)ccc2C)cc1
 : 4, -6, -3.6, 12, 14, -9.0, -3, -4, 0.3, -14
Cc1ccccc1OCC(=O)Nc1ccc(C)c(S(=O)(=O)N2CCCCCC2)c1
 : 7, 24, ·, -3, 0, 26, -9, -8, -0.4, ·
COc1ccc(-c2cnnn2-c2ccc(NC(=O)c3ccc(S(=O)(=O)N4CCCCC4)cc3)cc2)cc1OC
 : -4, -19, -0.3, 7, 18, 5.0, 16, 11, -0.9, -3
Brc1ccc(-c2c[n+]3c(n2-c2ccccc2)SCC3)cc1
 : 5, 47, -4.9, -17, 14, 5.0, -11, 49, -0.1, -1
CC(=O)[C@@]1(O)[C@H](C)CC2C3CC=C4CC(OP(=O)(O)O)CC[C@]4(C)C3CC[C@@]21C (stereo partly drawn)
 : 8, -9, 0.7, -8, 6, -0.7, -5, 5, 0.6, -20
CCCCn1c(N)c(N(C)C(=O)c2ccc(-n3cccn3)cc2)c(=O)[nH]c1=O
 : ·, ·, -1.8, ·, ·, ·, -14, -2, 1.1, -1
CSc1ccc(S(=O)(=O)NCC(=O)OCC(=O)NCc2ccco2)cc1[N+](=O)[O-]
 : 5, -7, 0.8, 4, 16, -2.0, -4, -2, 0.3, -4
COc1ccc(CCNC(=O)c2ccc(-c3ccc([N+](=O)[O-])cc3Cl)o2)cc1OC
 : 8, 52, -1.8, ·, ·, ·, 1, -2, ?, 11
O=C(CN1CCC(NC(=O)c2ccccc2)CC1)NCc1ccccc1F
 : -3, -9, -0.4, ·, ·, ·, 1, -5, -0.2, -4
Cc1ccc(S(=O)(=O)Nc2cccc3c2O[C@H](CN(C)Cc2ccc(-c4ccccc4)cc2)[C@@H](C)CN([C@H](C)CO)C3=O)cc1
 : ·, ·, 9.8, 2&8, 2&9, 1.7&-2.3, 10, -11, -0.1, ·
CNC(=O)c1sc(-c2ccccn2)nc1C
 : 29, -3, -0.5, -23*, 9.2*, 2.4*, -5, -11, 0.1, -2
COC(=O)Cn1c2ccc(F)cc2c2nc(C)sc21
 : 2, -7, -2.9, ·, ·, ·, 3, -2, 0.4, -19
O=C(CSc1nnc(COc2ccccc2)o1)N1CCCCC1
 : -1, -11, -8.4, 1, 7, -1.0, -6, 4, -0.1, 2
O=C(Cc1ccccc1)Nc1cc2c(cc1Cl)OCCCO2
 : -2, -11, 4.1, 10, 6, 0.0, 6, 1, 0.3, 2
Cc1ccc(S(=O)(=O)N(CCO)c2cc3c(s2)CCCC3)cc1
 : -17, 8, 8.1, ·, ·, ·, -9, 7, 0.3, -8
O=C(NNc1ccnc2cc(Cl)ccc12)C1CCCCC1
 : 10, 32, 2.2, 20, 4, 2.4, -1, 127*, 0.4, -14
CC1=CN2C(=N)/C(=C\c3cn(CCCOc4ccccc4)c4ccccc34)C(=O)N=C2S1
 : -12, 43, -1.5, ·, ·, ·, 3, 0, 0.2, ·
O=C(CC1C[C@H](C(=O)N2CCCCC2)[C@@]2(CCc3ccccc3)c3[nH]c4ccccc4c3CCN2C1=O)NCCCn1ccnc1 (stereo partly drawn)
 : ·, ·, 2.1, -41, -77, 1.7, 6, -10, -0.3, ·
O=C(NC1=NCCS1)c1cccs1
 : -4, -15, 0.2, ·, ·, ·, -3, -7, 0.3, -11
COc1ccc(/C=C(/NC(=O)c2ccco2)C(=O)N2CCc3ccccc32)cc1OC
 : -5, -5, -0.2, 5, -1, 2.7, -2, -1, 0.4, -5
